Screens (PubChem BioAssay)
YB-1 expr inh – YB-1 expression inhibition; U2OS, qRT-PCR YB-1 vs CDIP delta delta Cp, 16 h; active compounds read high; zero = DMSO, each unit about twofold; delta delta Cp (YB-1 minus CDIP) (test concentration not listed); 30,000 tested, 0.37% active;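 active = delta delta Cp rounded down to an integer at or above 3, about 3 SD of DMSO wells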;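 note: higher means less YB-1 transcript or more CDIP transcript relative to DMSO; stock transfer was 100 nL into about 100 µL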
Active calls of the source: *. This is a subset. The share of hits here may be higher or lower than overall.

SMILES	YB-1 expr inh
CNC[C@@H]1OCc2cn(nn2)CCCC(=O)N([C@@H](C)CO)C[C@@H]1C	-0.25
C[C@H]1CN([C@@H](C)CO)C(=O)CCCn2nncc2CO[C@@H]1CN(C)S(=O)(=O)c1ccc(-n2cccn2)cc1	0.028
COC(=O)[C@@]1(Cc2ccccc2CN=[N+]=[N-])COC(c2ccc(OCCCO)cc2)=N1	-0.092
O=C(NO)c1ccc(C(=O)N/N=C/c2cccc(O)c2O)cc1	0.089
C=CCNC(=O)[C@H]1[C@@H]2C(=O)O[C@@H](c3ccccc3)[C@@H](c3ccccc3)N2[C@@H](c2ccc(O)cc2)[C@]12C(=O)Nc1ccc(C#CCC(C(=O)OC)C(=O)OC)cc12	0.31
COc1ccc(O)c(/C=N/NC(=O)c2ccccn2)c1	-0.17
COc1ccc(NC(=O)N(C)C[C@@H]2OCc3cnnn3CCCC(=O)N([C@@H](C)CO)C[C@@H]2C)cc1	0.24
Cc1ccccc1CN(C)C[C@@H]1OCc2cn(nn2)CCCC(=O)N([C@@H](C)CO)C[C@H]1C	0.14
C[C@@H]1CN([C@H](C)CO)C(=O)CCCn2nncc2CO[C@@H]1CN(C)C(=O)Nc1ccccc1	-0.23
O=C1O[C@@H](c2ccccc2)[C@@H](c2ccccc2)N2[C@@H](c3ccc(OCCO)cc3)[C@]3(C(=O)Nc4ccc(C#CC5=CCCCC5)cc43)[C@@H](C(=O)N3CCCCCCC3)[C@H]12	0.059

Retrieved by compound from above (seven):
SMILES	YB-1 expr inh
O=C(NO)c1ccc(C(=O)N/N=C/c2cccc(O)c2O)cc1	0.089
C[C@H]1CN([C@@H](C)CO)C(=O)CCCn2nncc2CO[C@@H]1CN(C)S(=O)(=O)c1ccc(-n2cccn2)cc1	0.028
C=CCNC(=O)[C@H]1[C@@H]2C(=O)O[C@@H](c3ccccc3)[C@@H](c3ccccc3)N2[C@@H](c2ccc(O)cc2)[C@]12C(=O)Nc1ccc(C#CCC(C(=O)OC)C(=O)OC)cc12	0.31
Cc1ccccc1CN(C)C[C@@H]1OCc2cn(nn2)CCCC(=O)N([C@@H](C)CO)C[C@H]1C	0.14
CNC[C@@H]1OCc2cn(nn2)CCCC(=O)N([C@@H](C)CO)C[C@@H]1C	-0.25
COc1ccc(NC(=O)N(C)C[C@@H]2OCc3cnnn3CCCC(=O)N([C@@H](C)CO)C[C@@H]2C)cc1	0.24
COc1ccc(O)c(/C=N/NC(=O)c2ccccn2)c1	-0.17

(more compounds)
SMILES	YB-1 expr inh
O=C(c1ccccc1)N1Cc2ccccc2C[C@]2(N=C(c3ccc(OCCCO)cc3)O[C@@H]2c2ccccc2)C1=O	-0.22
COc1ccc([Si](C)(C)[C@H]2[C@H](CCO)O[C@@]3(C(=O)N(Cc4ccc(N5CCCCC5=O)cc4)c4ccccc43)[C@@H]2C)cc1	0.21
C[C@H]1CN([C@@H](C)CO)C(=O)CCCn2nncc2CO[C@@H]1CN(C)C(=O)Nc1ccccc1F	-0.18
CC(C)[C@H]1C=C(C(=O)NCc2ccccc2)O[C@@H](OCc2ccc(CO)cc2)C1	7.6*
CCCN(C)C[C@@H]1Oc2ncc(-c3cccc(F)c3)cc2C(=O)N([C@H](C)CO)C[C@@H]1C	-0.047
C=CC[C@]1(C(=O)NCc2ccccc2)COC(c2ccc(OCCCO)cc2)=N1	-0.27
C[C@H]1CN([C@@H](C)CO)C(=O)CCCn2cc(nn2)CO[C@H]1CN(C)S(=O)(=O)c1cccc(F)c1	0.72
COc1ccc([Si](C)(C)[C@H]2[C@H](CCn3cc(CCO)nn3)O[C@@]3(C(=O)N(Cc4cccc(N5CCOC5=O)c4)c4ccccc43)[C@@H]2C)cc1	0.4
O=C1NCC(=O)N2[C@@H]1C[C@@H](C(=O)NCc1ccc(F)cc1)[C@H]2c1ccc(O)cc1	0.6
COc1ccccc1CN1C(=O)c2ccccc2[C@](Cc2ccccc2I)(C(=O)NCc2ccccc2)[C@@H]1c1ccc(CO)cc1	0.28
C[C@@H]1CN([C@H](C)CO)C(=O)CCCn2cc(nn2)CO[C@@H]1CN(C)C(=O)Nc1ccc(C(F)(F)F)cc1	-0.3
O=C(O)CCCCCC(=O)N/N=C/c1cccnc1	-0.19
O=C1O[C@H](c2ccccc2)[C@H](c2ccccc2)N2[C@H]1[C@@H](C(=O)O)[C@]1(C(=O)Nc3ccc(C#CC4=CCCCC4)cc31)[C@H]2c1ccc(O)cc1	0.052
O=C(N/N=C/c1ccc(O)cc1Br)c1ccccc1O	-0.21
C[C@H]1CN([C@@H](C)CO)C(=O)CCCn2cc(nn2)CO[C@H]1CN(C)S(=O)(=O)c1ccccc1	-0.064
C[C@@H]1CN([C@@H](C)CO)C(=O)CCCn2cc(nn2)CO[C@H]1CN(C)C(=O)Nc1ccc(-c2cccs2)cc1	-0.065
C[C@@H]1CN([C@H](C)CO)C(=O)CCCn2nncc2CO[C@H]1CN(C)Cc1ccc2c(c1)OCCN2C	0.12
Cc1noc(C)c1S(=O)(=O)N(C)C[C@@H]1OCc2cnnn2CCCC(=O)N([C@H](C)CO)C[C@@H]1C	0.036
COc1ccc(NC(=O)N(C)C[C@@H]2Oc3ncc(/C=C/c4ccccc4)cc3C(=O)N([C@H](C)CO)C[C@@H]2C)cc1	-0.24
COc1ccccc1CN(C)C[C@@H]1OCc2cn(nn2)CCCC(=O)N([C@@H](C)CO)C[C@H]1C	0.35
COC(=O)[C@@]1(CCC(=O)OC(C)(C)C)N=C(c2ccc(OCCCO)cc2)O[C@H]1c1ccccc1	0.72
CNC(=O)C1=C[C@H](c2csc3ccccc23)C[C@H](OCCCCO)O1	0.14
C[C@@H]1CN([C@H](C)CO)C(=O)CCCn2nncc2CO[C@@H]1CN(C)S(=O)(=O)c1ccc(Cl)cc1	-0.44
COC(=O)CCCCCCC(=O)N/N=C/c1ccc(O)c(OC)c1	0.029
O=C(NO)c1ccc(C(=O)N/N=C/c2ccc3c(c2)OCCO3)cc1	-0.2
C=CCNC(=O)[C@@H]1[C@H]2C(=O)O[C@H](c3ccccc3)[C@H](c3ccccc3)N2[C@H](c2ccccc2OCCO)[C@@]12C(=O)Nc1ccc(C#CCCO)cc12	-0.086
COc1ccc(CN(C)C[C@@H]2OCc3cnnn3CCCC(=O)N([C@H](C)CO)C[C@@H]2C)cc1	-0.49
COc1ccc(/C=N/NC(=O)c2ccccn2)cc1OC	-0.11
C[C@@H]1CN([C@@H](C)CO)C(=O)CCCn2cc(nn2)CO[C@H]1CN(C)S(=O)(=O)c1ccccc1F	0.33
O=C(CCCCC(=O)N/N=C\c1ccc2c(c1)Cc1ccccc1-2)NO	0.32
C[C@H](CO)N1C[C@H](C)[C@H](CN(C)S(=O)(=O)c2cccs2)Oc2ncc(Br)cc2C1=O	0.37
C[C@@H]1CN([C@H](C)CO)C(=O)CCCn2cc(nn2)CO[C@@H]1CN(C)S(=O)(=O)c1ccccc1C#N	-0.55
O=C(N/N=C/c1cccnc1Cl)c1ccccc1O	0.4
COc1ccc(C#Cc2ccc3c(c2)[C@]2(C(=O)N3)[C@H](c3ccccc3OCCO)N3[C@H](c4ccccc4)[C@H](c4ccccc4)OC(=O)[C@H]3[C@@H]2C(=O)N2CCCCCCC2)cc1	0.0014
C[C@@H]1CN([C@@H](C)CO)C(=O)CCCn2cc(nn2)CO[C@H]1CN(C)C(=O)c1ccncc1	-0.48
COc1ccc(S(=O)(=O)N[C@@H]2CCCN(Cc3cccc(OCCO)c3)C2)cc1	0.18
O=C(N/N=C/c1ccc([N+](=O)[O-])c(O)c1)c1ccccn1	0.023
COc1ccc(/C=N/NC(=O)c2cccc(C(=O)NO)c2)c(OC)c1	-0.78
Cc1ccc(OC(=O)N(C)C[C@@H]2OCc3cn(nn3)CCCC(=O)N([C@@H](C)CO)C[C@@H]2C)cc1	0.12
C[C@@H]1CN([C@@H](C)CO)C(=O)CCCn2nncc2CO[C@@H]1CN(C)Cc1ccc(Cl)c(Cl)c1	-0.11
COc1ccc(C#Cc2cnc3c(c2)C(=O)N([C@H](C)CO)C[C@H](C)[C@H](CN(C)C(=O)Nc2ccccc2)O3)cc1OC	-0.056
C[C@H]1CN([C@@H](C)CO)C(=O)CCCn2nncc2CO[C@@H]1CN(C)S(=O)(=O)c1ccc2ccccc2c1	-0.24
C[C@@H]1CN([C@H](C)CO)C(=O)CCCn2cc(nn2)CO[C@H]1CN(C)C(=O)CCCN(C)C	0.57
COc1ccc(C#Cc2ccc3c(c2)[C@]2(C(=O)N3)[C@H](c3ccccc3OCCO)N3[C@H](c4ccccc4)[C@H](c4ccccc4)OC(=O)[C@H]3[C@@H]2C(=O)O)cc1	-0.2
O=C(O)CCCCCCC(=O)N/N=C/c1ccc(C(F)(F)F)cc1	0.15
NC(=O)[C@@H]1[C@H]2C(=O)O[C@H](c3ccccc3)[C@H](c3ccccc3)N2[C@H](c2ccccc2OCCO)[C@@]12C(=O)Nc1ccc(C#CCCO)cc12	0.37
Cc1ccsc1/C=N\NC(=O)CCCCC(=O)NO	-0.081
C[C@@H]1CN([C@H](C)CO)C(=O)CCCn2nncc2CO[C@H]1CN(C)Cc1cccc(O)c1	0.14
O=C(N/N=C/c1ccc(N2CCCC2)cc1)c1ccccc1O	-0.24
CC(C)CNC(=O)[C@@H]1c2ccccc2C(=O)N(CC23CC4CC(CC(C4)C2)C3)[C@H]1c1ccc(CO)cc1	-0.00018

Next section.
SMILES	YB-1 expr inh
C[C@H]1CN([C@@H](C)CO)C(=O)CCCn2nncc2CO[C@H]1CN(C)C(=O)Nc1ccccc1	0.32
COc1ccc(C#Cc2ccc3c(c2)[C@]2(C(=O)N3)[C@H](C(=O)N3CCc4cc(OC)c(OC)cc4C3)[C@H]3C(=O)O[C@H](c4ccccc4)[C@H](c4ccccc4)N3[C@@H]2c2ccc(OCCO)cc2)cc1	-0.23
C[C@H](CO)N1C[C@H](C)[C@@H](CN(C)C(=O)NC2CCCCC2)OCc2cnnn2CCCC1=O	0.27
O=C(CCCCCCC(=O)Nc1ccccc1O)N/N=C/c1cccs1	-0.23
C[C@H](CO)N1C[C@H](C)[C@H](CN(C)Cc2ccc3c(c2)OCO3)Oc2ncc(-c3cccc(F)c3)cc2C1=O	0.27
COCCOC(=O)N1C(=O)[C@@]2(c3ccccc31)[C@H](c1ccc(O)cc1)N1[C@H](c3ccccc3)[C@H](c3ccccc3)OC(=O)[C@H]1[C@@H]2C(=O)N1CCc2cc(OC)c(OC)cc2C1	-0.078
COc1cccc(NC(=O)N(C)C[C@@H]2OCc3cn(nn3)CCCC(=O)N([C@@H](C)CO)C[C@H]2C)c1	0.099
CNC[C@H]1OCc2cnnn2CCCC(=O)N([C@@H](C)CO)C[C@H]1C	-0.089
C[C@@H]1CN([C@@H](C)CO)C(=O)CCCn2cc(nn2)CO[C@@H]1CN(C)S(=O)(=O)c1ccc(Cl)cc1	0.092
COc1cccc(CN(C)C[C@@H]2OCc3cnnn3CCCC(=O)N([C@@H](C)CO)C[C@@H]2C)c1	-0.0069
COc1cccc(CN(C)C[C@H]2OCc3cnnn3CCCC(=O)N([C@@H](C)CO)C[C@H]2C)c1	0.62
C=CC[C@]12N=C(c3ccc(OCCCO)cc3)O[C@H]1c1ccccc1CN(CCS(=O)(=O)c1ccccc1)C2=O	0.35
C=CC[C@]1(C(=O)N(C)C)COC(c2ccc(OCCCO)cc2)=N1	-4.2
[N-]=[N+]=Nc1ccccc1C[C@@]1(C(=O)N2CCCCC2)N=C(c2ccc(OCCCO)cc2)O[C@@H]1c1ccccc1	-0.24
O=C(CCCCCCC(=O)Nc1ccccc1O)N/N=C/c1ccc(OCCO)cc1	-0.66
CC(C)(C)OC(=O)NC/C=N/NC(=O)CCCCCC(=O)O	-0.15
C[C@@H]1CN([C@@H](C)CO)C(=O)CCCn2cc(nn2)CO[C@H]1CN(C)C(=O)c1cc(-c2ccccc2)on1	-0.18
C[C@H](CO)N1C[C@H](C)[C@H](CN(C)Cc2ccc(F)cc2)Oc2ncc(-c3ccc(F)cc3)cc2C1=O	0.55
O=C(NO)c1cccc(C(=O)N/N=C/c2ccc3c(c2)OCCO3)c1	-0.034
C[C@H](CO)N1C[C@H](C)[C@@H](CN(C)Cc2ccccc2C(F)(F)F)OCc2cn(nn2)CCCC1=O	0.25
COc1ccc(NC(=O)N(C)C[C@@H]2Oc3ncc(-c4ccccc4)cc3C(=O)N([C@H](C)CO)C[C@@H]2C)cc1	0.13
COCCOC(=O)N1C(=O)[C@@]2(c3cc(C#CCC(C(=O)OC)C(=O)OC)ccc31)[C@H](C(=O)Nc1nc3ccccc3s1)[C@H]1C(=O)O[C@H](c3ccccc3)[C@H](c3ccccc3)N1[C@@H]2c1ccccc1OCCO	0.019
C[C@H](CO)N1C[C@H](C)[C@H](CN(C)C(=O)Nc2ccccc2)Oc2ncc(-c3ccc(F)cc3)cc2C1=O	0.26
Cc1ccc(S(=O)(=O)N(C)C[C@@H]2OCc3cn(nn3)CCCC(=O)N([C@H](C)CO)C[C@H]2C)cc1	0.34
Cc1ccccc1S(=O)(=O)N(C)C[C@@H]1OCc2cn(nn2)CCCC(=O)N([C@@H](C)CO)C[C@H]1C	0.18
CNC(=O)C1=C[C@H](c2csc3ccccc23)C[C@H](OCc2ccc(CO)cc2)O1	-0.35
C=CCN1C(=O)[C@@]2(O[C@@H](CCO)[C@H]([Si](C)(C)c3ccc(OC)cc3)[C@H]2C)c2cc(N3CCOC3=O)ccc21	-0.54
CC(C)CN1C(=O)[C@@]2(Cc3ccccc31)c1ccccc1C(=O)N(C1CCCCC1)[C@H]2c1ccc(CO)cc1	-0.47

Three of the compounds above, with the structure last.
YB-1 expr inh	molecule
0.26	C[C@H](CO)N1C[C@H](C)[C@H](CN(C)C(=O)Nc2ccccc2)Oc2ncc(-c3ccc(F)cc3)cc2C1=O
0.13	COc1ccc(NC(=O)N(C)C[C@@H]2Oc3ncc(-c4ccccc4)cc3C(=O)N([C@H](C)CO)C[C@@H]2C)cc1
0.18	Cc1ccccc1S(=O)(=O)N(C)C[C@@H]1OCc2cn(nn2)CCCC(=O)N([C@@H](C)CO)C[C@H]1C
